Calb biofilm kill: clotrimazole potentiators killing C. albicans biofilm, primary screen, 4-compound mixtures; 120,000 compounds, 0.02% hits; AID 1242, 2008; inhibition, % at 7.6 µM; C. albicans biofilm persisters + clotrimazole, fluorescence viability; primary screen in compound mixtures of four per well;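 active means inhibition above 30.3% in the primary screen of four-compound pools, then above 30% when the compound was retested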;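 further: compounds exposed to preformed 24 h biofilms for 48 h; the number belongs to the whole pool; some results filed as inactive read as strong as hits; inactives centre near 12; 0% = biofilm with clotrimazole alone and 100% = kill control; retested singly at about 60 µM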
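System: C. albicans CAF4-2 wild-type biofilms; Medium: RPMI/MOPS medium, pH 7.0; Reagent: Clotrimazole, 50 µg/mL; Times: biofilm formation 24 h, compound exposure 48 h, 37 °C; Detection: 2-h Alamar Blue fluorescence, 535/590 nm excitation/emission; Evaluation: percent inhibition of biofilm viability.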
Numbers without * were called inactive.

mol,Calb biofilm kill
O=C1CCN(S(=O)(=O)c2ccc(Br)cc2)CCN1,1.6
COc1ccc(N(C(=O)Cc2cccs2)C2C=CS(=O)(=O)C2)cc1 (configuration not stated),11.3
CCOC(=O)C(=Cc1cn(C)c2ccc(S(=O)(=O)N(C)C)cc12)C(=O)OCC,10.3
O=C(CSc1nc2ncc(Cl)cc2[nH]1)N(Cc1ccccc1)C1CCS(=O)(=O)C1 (configuration not stated),15.3
O=C(COC(=O)c1n[nH]c2ccccc12)Nc1cccc(S(=O)(=O)N2CCOCC2)c1,18.9
Cc1cccnc1CN1CCN(C(=O)c2cc(COc3ccc4ncccc4c3)on2)CC1,10.1
COc1ccc2c(C)cc(SCC(=O)Nc3nsc(-c4ccc(C)cc4)n3)nc2c1,10.5
CCOc1ccc(NC(=O)c2cccc(OC(=S)N3CCOCC3)c2)cc1,3.9
CCOc1ccc(/C=N/n2cc(-c3ccccc3)[nH]c2=S)cc1,16.1
Cc1c(C(=O)O)sc2nc(CSc3ncc(C(F)(F)F)cc3Cl)[nH]c(=O)c12,12.3
CCCCC1S/C(=N/N=C/c2cccs2)NC1=O (configuration not stated),9.0
COc1ccc(C(=O)COc2ccccc2C(N)=O)cc1,2.0
CC(C)Sc1nsc2nc(=O)c(/C=C3\C=Nc4ccccc43)c(N)n12,12.6
CCc1ccc2nc(SCC(=O)N3CC(=O)Nc4ccccc43)c(C#N)cc2c1,17.0
O=c1[nH]c2cc3c(cc2cc1CN(Cc1cccnc1)C(=S)NCc1ccco1)OCCO3,18.1
O=C(C1=C[C@@H]2[C@H]3C(=O)N(c4ccccc4Cl)C(=O)[C@H]3[C@@H](C(=O)c3ccc(Cl)cc3)N2C=C1)c1ccccc1,14.5
CCCCNC(=O)/C(=C/c1ccccc1)NC(C)=O,18.1
Fc1cccc(Cl)c1CSc1nnc(CNc2ccccc2)o1,1.5
O=C(NCc1ccc(Cl)cc1)C(=O)Nc1nccs1,12.4
CCOC(=O)Cc1nn(C(C)C)c(=O)c2ccccc12,16.2

Fetched by compound from the entries so far (2):
mol,Calb biofilm kill
Fc1cccc(Cl)c1CSc1nnc(CNc2ccccc2)o1,1.5
CCc1ccc2nc(SCC(=O)N3CC(=O)Nc4ccccc43)c(C#N)cc2c1,17.0

The results go on.
mol,Calb biofilm kill
Cn1c(=O)c(=O)n(C)c2cc([N+](=O)[O-])c([N+](=O)[O-])cc21,18.3
N/C(=N\OC(=O)Nc1cccc(C(F)(F)F)c1)c1ccno1,7.9
O=C(N/N=C\c1cccs1)c1ccccc1-n1cccc1,5.1
O=C(O)/C=C\c1cccc(-n2cnnn2)c1,12.3
Cc1nn(C)c(C)c1/C=C/C(=O)c1cccs1,7.6
Cc1ccsc1C1Nc2ccccc2-c2nc3ccccc3n21 (configuration not stated),13.4
Cc1ccc(C)c(-n2cc(CNCCCn3cccn3)c(-c3ccccc3)n2)c1,6.3
CC(c1ccc(F)cc1)n1c(Cn2ncc3ccccc3c2=O)n[nH]c1=S (configuration not stated),10.5
c1ccc(-c2nnc(CN3CCN(C(c4ccccc4)c4ccccc4)CC3)o2)cc1,11.8
Cc1sc(NC(=O)c2ccccc2F)c(CN2CCCCC2)c1C,19.1
O=Cc1cc2cc3c(cc2nc1Cl)OCCO3,15.2
O=C(O)C1CN(c2nc(Cl)ccc2[N+](=O)[O-])C1,16.2
CCCCC(=O)Nc1ccc(C(=O)NNC(=S)NC(=O)c2ccco2)cc1,16.2
COC(=O)c1cc(NC(=O)c2cccnc2)ccc1N1CCOCC1,9.2
O=S(=O)(c1ccccc1F)N1CCN(CC(O)c2ccccc2)CC1 (configuration not stated),12.1
O=C(NCC1CCCO1)c1cc2ccccc2oc1=O (configuration not stated),31.3
Cc1cccc(NC(=S)NCC(c2cccnc2)N(C)C)c1 (configuration not stated),8.9
O=C(N/N=C/c1ccncc1)C1CC1(c1ccccc1)c1ccccc1 (configuration not stated),24.4
C/C(=N\Nc1nc2ccccc2s1)c1ccc(Br)s1,6.8
CCSc1nnc(CNC(=O)C23CC4CC(CC(C4)C2)C3)n1C1CCCCC1,13.8
OCCN1CCN(c2ncnc3c2c(-c2ccccc2)cn3-c2ccc(F)cc2)CC1,14.2
CC1(C(=O)Nc2cccc(C(F)(F)F)c2)CO1 (configuration not stated),17.5
Cc1cccc(Oc2nc(-c3ccncc3)nc3ccccc23)c1,18.7
CC(Nc1nc2ccccc2n2cnnc12)c1ccccc1 (configuration not stated),30.7
CC(/C=N/NC(=O)c1cc(C2CC2)[nH]n1)=C\c1ccccc1,23.7
Cc1cc(C)c2c(n1)sc1c(N3CCCCC3)ncnc12,11.0
O=S(=O)(c1cccc(C(F)(F)F)c1)N1CCN(C(=S)NCc2ccco2)CC1,7.1
O=C(NCc1cccnc1)C(=O)C1C(=O)Nc2ccccc21 (configuration not stated),13.5
CCSc1sc(CC)cc1C=O,18.0
CCOc1ccc(NC(=S)NC23CN4CN(CN(C4)C2)C3)cc1,19.9
COc1ccc(NS(=O)(=O)c2ccc(NC(=O)c3ccc(N(C)S(C)(=O)=O)cc3)cc2)c(OC)c1,6.9
O=C(COc1ccccc1[N+](=O)[O-])Nc1cc(C(=O)O)cc(C(=O)O)c1,14.2
CCn1c2ccc(OC)cc2c2nc3ccccc3nc21,2.8
Cc1nnsc1C(=O)N1CCC(CO)(Cc2ccccc2Cl)CC1,22.7
CC(=O)c1ccc(NC(=O)/C(Cl)=C/c2ccccc2)cc1,5.9
CC1=C(C(=O)OCC2CCCO2)C(c2ccc(Cl)c(Cl)c2)NC(=O)N1 (configuration not stated),7.1
CCN(CC)CC(=O)c1c(N)n(Cc2ccccc2)c(=O)n(C)c1=O,13.8
COC(=O)c1ccccc1NC(=O)Cn1nnc(-c2ccc(OC)cc2)n1,3.9
NC1=NC(=Nc2ccc(Cl)cc2)c2ccccc21,16.4
CC(C)c1ccc(Nc2nc(CC(=O)O)cs2)cc1,14.1
COc1cccc(C(C(=O)NC2CCCCC2)N(C(=O)c2ccccn2)c2cccnc2)c1 (configuration not stated),9.2
Cn1nnnc1SCCNCc1cc(Cl)ccc1OCc1ccccc1,8.6
COc1ccccc1-c1noc(-c2ccccc2C(=O)NCc2ccco2)n1,2.6
O=C(NCCc1ccccc1)c1ccc(-c2ccccc2C(F)(F)F)o1,6.5
CCC(OC(=O)c1nsc(Cl)c1Cl)C(=O)NCCOC (configuration not stated),14.9
COc1ccc(C2CC(=O)c3cnn(-c4nc(C)cc(C)n4)c3C2)cc1 (configuration not stated),15.9
C/C(=N\O)C(C)NC(=O)c1ccccc1 (configuration not stated),-5.8
Cc1ccc(C(=O)N/N=C(/CC(=O)c2cccs2)C(F)(F)F)cc1,25.3
COc1ccc(CCNC(=O)CSc2cn(Cc3ccccc3)c3ccccc23)cc1OC,14.2
CCOC(=O)C1=C(C)N(CCCC(=O)O)C(=O)NC1c1ccc(OC)cc1 (configuration not stated),-0.1
O=c1[nH]c(SCCOc2ccccc2F)nc2ccccc12,-1.0
Cc1ccc2c(C)nc(SC(C(=O)c3ccccc3)c3ccccc3)nc2c1 (configuration not stated),8.8
COc1cc(CNCC2CCCO2)ccc1OCC(N)=O (configuration not stated),16.2
C=C1C(=O)C=C[C@]2(C)C[C@@H]3OC(=O)[C@](C)(O)[C@H]3C[C@@H]12,8.9
Cc1c(NC2=CC(=O)CCC2)c(=O)n(-c2ccccc2)n1C,-5.4
O=C(/C=C/c1cccc([N+](=O)[O-])c1)NCCc1ccc(F)cc1,7.4
CC(=O)Nc1ccc(OC(=O)c2cc3cc(Br)cc(Br)c3oc2=O)cc1,17.1
CCn1c(CNc2ccc(C)cc2)nnc1SCC(N)=O,4.3
CC(C)n1c(NCCc2ccccc2)nc2c1c(=O)n(C)c(=O)n2C,18.3
CCc1nc2ccccc2n1CC(=O)N1CCN(Cc2ccccc2)CC1,8.0

Taken from above:
COc1ccc(C2CC(=O)c3cnn(-c4nc(C)cc(C)n4)c3C2)cc1 (configuration not stated) – Calb biofilm kill = 15.9
CC(=O)Nc1ccc(OC(=O)c2cc3cc(Br)cc(Br)c3oc2=O)cc1 – Calb biofilm kill = 17.1
O=C(/C=C/c1cccc([N+](=O)[O-])c1)NCCc1ccc(F)cc1 – Calb biofilm kill = 7.4
Cc1ccc2c(C)nc(SC(C(=O)c3ccccc3)c3ccccc3)nc2c1 (configuration not stated) – Calb biofilm kill = 8.8
CC(C)n1c(NCCc2ccccc2)nc2c1c(=O)n(C)c(=O)n2C – Calb biofilm kill = 18.3
C/C(=N\O)C(C)NC(=O)c1ccccc1 (configuration not stated) – Calb biofilm kill = -5.8
Cc1ccc(C(=O)N/N=C(/CC(=O)c2cccs2)C(F)(F)F)cc1 – Calb biofilm kill = 25.3

The results go on.
mol,Calb biofilm kill
CC(C)c1cc(NC(=O)c2ccccc2)cc(C(C)C)c1O,10.4
O=C(COC(=O)CSc1ccc2ccccc2c1)NC1CC1,10.0
COc1cc(/C=C/C(=O)O)cc(S(=O)(=O)Nc2ccccc2Cl)c1OC,12.9
CC(=O)Nc1ccc(/C=N/NC(=O)c2cccc(S(=O)(=O)N3CCOCC3)c2)cc1,14.9
O=C(C1=C[C@H](c2ccccc2)C[C@H](OCc2ccc(CO)cc2)O1)N1CCOCC1,18.5
COc1ccc(CCNC(=O)c2cccs2)cc1OC,15.7
O=C(COC(=O)c1ccncc1)c1ccccc1,17.8
COCCn1c(C)cc(C(=O)COc2ncnc3ccc(Br)cc23)c1C,13.7
Cc1ccc(NC(=O)COC(=O)CNC(=O)c2ccc(Br)cc2)c(C)c1,19.4
CCOC(=O)C1=C(c2ccccc2)Nc2ncnn2C1c1cccc(O)c1 (configuration not stated),16.3
CC(=O)C1=C(C)NC2(O)c3ccccc3C(=O)C12O (configuration not stated),12.7
Cc1ccc(C(=O)NNc2c3ccccc3nc3ccccc23)cc1,17.1
CCOc1cc(/C=N/NC(=O)c2cccnc2)cc(Br)c1OCC(N)=O,11.5
O=C(O)CSc1nnc(COc2cccc3ccccc23)n1Cc1ccccc1,-4.6
O=C(O)c1ccc(/C=N/NC(=S)NC2CCCCC2)cc1,12.8
Cc1nc(C)c(-c2csc(Nc3ccc(F)cc3)n2)s1,8.7
Cc1cc(NC(=O)c2sc(Nc3ccc(F)c(Cl)c3)nc2N)no1,15.8
CS(=O)(=O)N1CCN(CC(=O)NC2CCCCC2)CC1,12.7
Clc1ccc(-n2nnc(-c3cccnc3)n2)cc1Cl,12.3
COC(=O)C1=C(C)N(c2ccc(C)c(C)c2)/C(=C/c2ccc(O)cc2)C1=O,14.6
CCC(=O)Nc1ccc(C(=O)NNC(=O)Cc2ccccc2)cc1,2.8
O=C(N/C(=C/c1cccs1)C(=O)N1CCCCCC1)c1ccccc1,8.1
CCN1C(=O)C2(SC(NC(C)=O)=NN2C(C)=O)c2cc(C)cc(C)c21 (configuration not stated),13.3
CC(C)CNC(=O)COC(=O)c1ccc(Cl)c(S(=O)(=O)N2CCc3ccccc32)c1,13.1
CC1CC(C)CN(S(=O)(=O)c2ccc3c(c2)oc(=O)n3CC(=O)NCc2cccnc2)C1 (configuration not stated),23.7
COC(=O)C1CCN(CCCOc2ccc(CN3CCN(c4ccc([N+](=O)[O-])cc4)CC3)cc2)CC1,13.2
CCC(=O)N(C)CCc1cc2c(c(OC)c1/C=N/NS(=O)(=O)c1ccc(C)cc1)OCO2,29.4
O=C(CNC(=O)c1cnccc1C(F)(F)F)c1cccc(Cl)c1,28.1
O=C(c1ccc(OC2CCN(Cc3ccccn3)CC2)cc1)N1CCCC(O)C1 (configuration not stated),0.8
OCC1(CCOc2ccccc2)CCN(CCCn2cccn2)CC1,3.3
C=C(C)C(=O)Nc1ccc(NC(C)C)cc1,15.9
Cc1sc(N2C(=O)C3C(C2=O)[C@H]2C=C[C@@H]3C2)c(C#N)c1C (some centres not stated),21.3
CCOC(=O)c1csc(NC(=O)c2ccc(OCC)cc2)n1,10.2
CCCCCCCCNC(C)C(O)c1ccc(SC(C)C)cc1 (configuration not stated),23.9
O=S(=O)(CCN1C=CC(C(F)(F)F)=NCC1)c1ccc(F)cc1,23.8
CCOCCCNC(=S)Nc1ccc2nc(N3CCCC3)cc(C)c2c1,13.4
O=C(/C=C/c1ccccc1[N+](=O)[O-])NCC1CCCO1 (configuration not stated),16.2
O=C1CCC(C(=O)NCc2cccnc2)N1 (configuration not stated),8.9
O=C1CN(C(=O)c2cc3ccccc3o2)c2ccccc2N1,10.3
CCOC(=O)N1CCN(C(=O)Nc2ccccc2)CC1,-0.4
COc1cc(CC(=O)OCC(=O)Nc2ccc3c(c2)OCCO3)cc(OC)c1OC,5.8
COCCCNCCCCOc1ccc(C)cc1[N+](=O)[O-],10.3
CCC(C)C(NC(=O)OC(C)(C)C)C(=O)NC(C(=O)NC(C)C(N)=O)C(C)C (configuration not stated),4.2

Structures shown so far that contain a cyano group (2):
mol,Calb biofilm kill
CCc1ccc2nc(SCC(=O)N3CC(=O)Nc4ccccc43)c(C#N)cc2c1,17.0
Cc1sc(N2C(=O)C3C(C2=O)[C@H]2C=C[C@@H]3C2)c(C#N)c1C (some centres not stated),21.3

These rows are one share of the data; count on the stated rates, not on these rows.
